High-throughput results: PubChem, National Center for Advancing Translational Sciences (NCATS)
Rango dissoc inh: qHTS Assay for Inhibitors of RanGTP induced Rango (Ran-regulated importin-beta cargo) - Importin beta complex dissociation; Biochemical FRET Rango-importin beta, RanGTP-induced dissociation; AID 540253, 2011; Potency, µM (series often up to 46.1 µM), without a hit: at the top dose activity change, negative = inhibition; 340,000 compounds, 0.071% hits; active means falling FRET ratio curve, often poorly fitted, with flat reads before Ran was added; inconclusive means other falling curves, or compound fluorescence or quenching; inactive means flat or rising ratio curve;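 note: potency is the fitted concentration of half-maximal effect; % of control where 0% means no effect; nearly all actives have a fitted effect of over 45% in size; -100% = wells without RanGTP and RCC1; the record marks most hits as doubtful in a second field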
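Rango (0.1 uM)–importin beta (0.25 uM) complex; RanGTP-RCC1 trigger; 45 min RT; CFP/YFP FRET read.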
miR-21 FLuc: qHTS Assay for Modulators of miRNAs and/orActivators of miR-21; HeLa miR-21 FLuc reporter, luciferase, 48 h; Potency, µM (doses to about 38.3 µM), for the others: top-dose reporter change, positive = more light; 340,000 tested, under 10 active; active = well fitted rising curve with a large enough effect; inconclusive = small, poorly fitted or top-dose-only effect; inactive = no such curve, though single readings can be large or run the other way;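 note: % of control where 0% means no effect; miR-21 action dims this reporter so a rising signal means less miR-21 action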
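Luminescence from a firefly luciferase reporter carrying a miR-21 binding site downstream, stably expressed under a CMV promoter in HeLa cells that make miR-21 endogenously, reports miRNA modulation after 48 h compound exposure up to approximately 40uM final.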
Rango-impB inh: qHTS Assay for Inhibitors of Rango (Ran-regulated importin-beta cargo) - Importin beta complex formation; Potency, µM (doses to about 92.2 µM), inactives show at the top dose inhibition of complex formation; Importin subunit beta-1 (Homo sapiens), Q14974; 340,000 compounds, 0.031% hits; Rango CFP/YFP FRET sensor + importin beta, 45 min; AID 540263, 2011; active = rising FRET ratio curve, often small or poorly fitted; inconclusive = mostly compound fluorescence or quenching in the first reads; inactive = flat curves in all reads;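 note: potency is the fitted concentration of half-maximal effect; 0% = DMSO wells and 100% = buffer wells lacking importin beta; nearly all actives have a fitted effect of over 15% in size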
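FRET biosensor Rango (snurportin 1 IBB between N-terminal EYFP and C-terminal Cerulean), 50 nM in PBS/1 mM DTT/0.02% Tween-20/0.1% BSA, preincubated 5 min RT with compound; 0.125 microM importin beta added, 45 min RT, CFP/YFP FRET ratio read.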
GLA inh pH 4.5: qHTS Assay for Inhibitors of Human alpha-Galactosidase at pH 4.5. Alpha-galactosidase A (Homo sapiens), P06280. 230,000 tested, under 10 active. activity change, negative = inhibition, % at 105 µM. AID 1467, 2008. purified enzyme, 4-MU-alpha-Gal fluorescence, pH 4.5; inconclusive = small, poorly fitted or top-dose-only inhibition, or a rising curve; inactive = flat fitted curve, though single readings scatter; no compound was filed as active;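 note: 0% = full activity with enzyme and -100% = basal without enzyme; dose as in the result columns while the protocol names 77 µM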
Target sequence (P06280 whole entry, looked up): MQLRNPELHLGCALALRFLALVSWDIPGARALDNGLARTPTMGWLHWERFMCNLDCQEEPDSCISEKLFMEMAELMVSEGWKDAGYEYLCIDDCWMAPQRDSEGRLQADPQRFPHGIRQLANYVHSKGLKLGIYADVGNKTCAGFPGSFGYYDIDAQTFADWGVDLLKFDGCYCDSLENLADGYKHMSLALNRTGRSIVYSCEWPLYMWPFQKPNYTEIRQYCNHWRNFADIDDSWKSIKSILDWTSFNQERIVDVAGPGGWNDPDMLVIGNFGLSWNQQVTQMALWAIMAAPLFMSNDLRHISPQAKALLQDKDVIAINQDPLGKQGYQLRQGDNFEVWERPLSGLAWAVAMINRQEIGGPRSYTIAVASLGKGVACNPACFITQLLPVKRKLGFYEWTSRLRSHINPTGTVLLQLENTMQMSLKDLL
* hit, by the source's call; & = joins results of further samples. An excerpt (hit frequency here may not be typical).

Sample of the layout (2 entries):
What do the screens show for `O=C(O)C1C2CCC(C2)C1C(=O)NCCc1ccccc1` (stereo unspecified)?
Rango dissoc inh: 4.2%; miR-21 FLuc: -3.6%; Rango-impB inh: 0.0%

Results for COc1cccc(CNC(=O)c2cc(C3CC3)nc3c2cnn3C(C)C)c1 ?
Rango dissoc inh: -4.0%; Rango-impB inh: -4.4%

The list itself, from the start:
What do the screens show for `O=C(O)C1C2CCC(C2)C1C(=O)NCCc1ccccc1` (stereo unspecified)?
Rango dissoc inh: 4.2%; miR-21 FLuc: -3.6%; Rango-impB inh: 0.0%

Results for COc1cccc(CNC(=O)c2cc(C3CC3)nc3c2cnn3C(C)C)c1 ?
Rango dissoc inh: -4.0%; Rango-impB inh: -4.4%

How did C=C1CCN(CC(=O)OC)S(=O)(=O)c2ccccc21 do in these assays?
Rango dissoc inh: 0.0%; miR-21 FLuc: -0.3%; Rango-impB inh: -0.1%; GLA inh pH 4.5: 8.1

How did CC(C)(C)c1ccc(OCCC(=O)OCC(=O)NC(=O)NC2CCCC2)cc1 do in these assays?
Rango dissoc inh: -3.2%; Rango-impB inh: 4.1%

What do the screens show for `Cc1cc(C)n2nc(C(=O)Nc3cccc(S(=O)(=O)N4CCCC4)c3)nc2n1`?
Rango dissoc inh: 0.7%; miR-21 FLuc: -7.0%; Rango-impB inh: 2.1%; GLA inh pH 4.5: 5.3

Results for O=C(N/N=C\c1cc2c(cc1Cl)OCO2)c1ccc(Br)s1 ?
Rango dissoc inh: -8.3%; miR-21 FLuc: 0.2%; Rango-impB inh: 0.1%

Results for O=C(NNC(=S)NC(=O)c1ccccc1)c1ccc([N+](=O)[O-])cc1 ?
Rango dissoc inh: 3.0%; miR-21 FLuc: 10.4%; Rango-impB inh: -0.2%

What do the screens show for `N=c1c(S(=O)(=O)c2ccccc2)cc2c(=O)n3ccccc3nc2n1Cc1cccnc1`?
Rango dissoc inh: inconclusive; Rango-impB inh: inconclusive

How did CC(=O)Oc1ccc(C(=O)NCCc2ccccc2)cc1 do in these assays?
Rango dissoc inh: 5.9%; miR-21 FLuc: -11.5%; Rango-impB inh: 2.8%; GLA inh pH 4.5: -26.7

How did CN(C(=S)Oc1ccc(C(=O)Nc2ccccc2)cc1)c1ccccc1 do in these assays?
Rango dissoc inh: 9.7%; miR-21 FLuc: 26.9%; Rango-impB inh: 1.8%; GLA inh pH 4.5: -5.7

What do the screens show for `COc1cc(C(=O)NC(=S)Nc2ccc3oc(=O)ccc3c2)cc(OC)c1OC`?
Rango dissoc inh: -7.0%; miR-21 FLuc: -0.9%; Rango-impB inh: 2.3%; GLA inh pH 4.5: 9.7

How did CC(C)(C)OC(=O)[C@H](Cc1ccccc1)NC(=O)c1nc[nH]c1C(=O)NC1CCNCC1 do in these assays?
Rango dissoc inh: 0.5%; Rango-impB inh: -2.8%

How did COc1ccc(C(C(=O)NC(C)(C)C)N(C(=O)CCC(=O)Nc2cc(C)on2)c2cccc(F)c2)cc1 (stereo unspecified) do in these assays?
Rango dissoc inh: -0.8%; miR-21 FLuc: 0.6%; Rango-impB inh: 0.9%

What do the screens show for `O=C(Nc1ccc(N2CCOCC2)c(S(=O)(=O)Nc2ccccc2Cl)c1)c1ccc(=O)[nH]n1`?
Rango dissoc inh: 19.5%; Rango-impB inh: 7.9%

What do the screens show for `CN(C(N)=S)c1ccccc1`?
Rango dissoc inh: -6.3%; miR-21 FLuc: -4.2%; Rango-impB inh: 0.4%; GLA inh pH 4.5: 10.4

Results for Cc1cc(Nc2ccc(F)cc2Cl)n2nc(C)nc2n1 ?
Rango dissoc inh: -4.9%; miR-21 FLuc: -18.0%; Rango-impB inh: 2.8%; GLA inh pH 4.5: 3.4

Results for Cc1cc(C)n(-c2ccc(C(=O)OCC(=O)Nc3ccc(S(=O)(=O)N4CCOCC4)cc3)cc2)n1 ?
Rango dissoc inh: 0.6%; miR-21 FLuc: -11.6%; Rango-impB inh: -0.8%; GLA inh pH 4.5: -15.5

How did Cc1ccnc(NC(=O)C2CCCN(S(=O)(=O)c3cnc[nH]3)C2)c1 (stereo unspecified) do in these assays?
Rango dissoc inh: 19.2%; miR-21 FLuc: -8.4%; Rango-impB inh: -1.3%; GLA inh pH 4.5: 5.3

What do the screens show for `CCCC1(C2CCCC2)NC(=O)NC1=O` (stereo unspecified)?
Rango dissoc inh: 2.2%; Rango-impB inh: 2.7%

How did CC(NC(=O)COC(=O)CCc1ccc(S(=O)(=O)N2CCOCC2)cc1)C1CC2CCC1C2 (stereo unspecified) do in these assays?
Rango dissoc inh: 0.8%; miR-21 FLuc: -10.1%; Rango-impB inh: -2.3%; GLA inh pH 4.5: 1.8

Results for CC[C@@]1(C(=O)OC)N[C@H](CN(C)C(=O)Nc2ccc(OC)cc2)[C@@H]2C(=O)N(Cc3ccccc3)C(=O)[C@@H]21 ?
Rango dissoc inh: inconclusive; Rango-impB inh: -1.4%

Results for Cc1cc(C)nc(Nc2n[nH]c(-c3ccccc3N)n2)n1 ?
Rango dissoc inh: 30.8%; miR-21 FLuc: -1.9%; Rango-impB inh: 1.3%; GLA inh pH 4.5: 4.3

Results for COc1ccc(NC(=O)/C(C#N)=C/c2cccnc2)c(OC)c1 ?
Rango dissoc inh: -4.5%; miR-21 FLuc: -3.1%; Rango-impB inh: 1.9%

Results for COc1cccc2cc(-c3cc(=O)oc4ccc(O)cc34)oc12 ?
Rango dissoc inh: -13.1%; miR-21 FLuc: -1.2%; Rango-impB inh: -2.3%

What do the screens show for `Cc1ccc(N(C(=O)c2csnn2)C(C(=O)NC2CCCC2)c2ccncc2)c(C)c1` (stereo unspecified)?
Rango dissoc inh: 9.5%; miR-21 FLuc: -1.1%; Rango-impB inh: 7.2%

What do the screens show for `O=C(CSC(=S)N1CCN(c2ccccc2)CC1)Nc1nc(-c2ccccc2)c(-c2ccccc2)o1`?
Rango dissoc inh: 0.4%; miR-21 FLuc: -1.8%; Rango-impB inh: -1.2%; GLA inh pH 4.5: 8.3

How did COCc1cc(=O)[nH]c(-c2csc(C)n2)n1 do in these assays?
Rango dissoc inh: 0.4%; miR-21 FLuc: -1.2%; Rango-impB inh: 1.7%; GLA inh pH 4.5: -6.2

Results for COc1ccc(-n2c(C)ccc2-c2ccccc2)cn1 ?
Rango dissoc inh: -26.0%; miR-21 FLuc: 0.4%; Rango-impB inh: inconclusive

What do the screens show for `NC(=O)c1ccc(Oc2ncc(C(F)(F)F)cc2Cl)cc1`?
Rango dissoc inh: 2.0%; miR-21 FLuc: -26.4%; Rango-impB inh: -0.7%; GLA inh pH 4.5: -6.1

Results for CCOc1cc(C(=O)N/N=C/C(Br)=C/c2ccccc2)cc(OCC)c1OCC ?
Rango dissoc inh: 1.9%; miR-21 FLuc: 14.9%; Rango-impB inh: -0.7%; GLA inh pH 4.5: -4.0

How did COc1cc(C(=O)Nc2c(C)cc(C)cc2C)c(Br)c(OC)c1OC do in these assays?
Rango dissoc inh: -12.1%; miR-21 FLuc: 11.9%; Rango-impB inh: 2.2%; GLA inh pH 4.5: -2.3

What do the screens show for `CC(=O)N(c1ccc2oc(=O)sc2c1)S(=O)(=O)c1cccs1`?
Rango dissoc inh: 30.6%; miR-21 FLuc: 2.8%; Rango-impB inh: -1.2%; GLA inh pH 4.5: -11.2

Results for N#Cc1ccccc1OCC(=O)OCC(=O)NC1CCCC1 ?
Rango dissoc inh: -3.5%; Rango-impB inh: 1.0%

Results for COc1ccc(Cl)cc1N(C)C(=O)CCNC(=O)Cn1cnc2ccccc2c1=O ?
Rango dissoc inh: -7.6%; miR-21 FLuc: 0.4%; Rango-impB inh: 4.9%; GLA inh pH 4.5: 1.0

Results for O=C(NCc1ccccc1)C12CC3CC(CC(C3)C1)C2 ?
Rango dissoc inh: -12.7%; miR-21 FLuc: -5.9%; Rango-impB inh: 4.4%; GLA inh pH 4.5: -3.6

How did Cc1c(OCC(=O)N[C@@H](Cc2c[nH]c3ccccc23)C(=O)O)ccc2c1oc(=O)c1ccccc12 do in these assays?
Rango dissoc inh: -0.8%; miR-21 FLuc: -0.1%; Rango-impB inh: -2.5%

How did CCCCC1C(=O)NN(c2ccccc2)C1=O (stereo unspecified) do in these assays?
Rango dissoc inh: -17.7%; Rango-impB inh: -0.2%

What do the screens show for `Cn1c(CCN2CCN(c3ccccn3)CC2)nc2cc(NC(=O)COc3ccc(Cl)cc3)ccc21`?
Rango dissoc inh: inconclusive; miR-21 FLuc: 29.0%; Rango-impB inh: -2.1%

How did CCOc1ccc(CNC(=O)c2ccc(Sc3ccc(Cl)cc3)c(NC(C)=O)c2)cc1 do in these assays?
Rango dissoc inh: -1.6%; miR-21 FLuc: 23.3%&17.8%; Rango-impB inh: -2.9%; GLA inh pH 4.5: -4.8

What do the screens show for `CCOC(=O)N1CCN(C(=O)CN(C)S(=O)(=O)c2ccc(F)cc2)CC1`?
Rango dissoc inh: 16.6%; miR-21 FLuc: -9.8%; Rango-impB inh: -1.3%

How did CCN(CC)C(=O)c1ccc(O)c(OC)c1 do in these assays?
Rango dissoc inh: -1.6%; miR-21 FLuc: -3.1%; Rango-impB inh: 1.3%; GLA inh pH 4.5: -18.8&0.2&0.1

How did CCNS(=O)(=O)c1ccc(CCC(=O)N2CCN(c3cccc(Cl)c3)CC2)cc1 do in these assays?
Rango dissoc inh: 2.0%; miR-21 FLuc: 25.1%; Rango-impB inh: -2.8%

What do the screens show for `CC(=O)Nc1ccc(/C=N/NC(=S)NC(C)C)cc1`?
Rango dissoc inh: -2.5%; miR-21 FLuc: 3.2%; Rango-impB inh: -1.3%; GLA inh pH 4.5: 9.1

Results for CC(=O)Oc1ccc2occ(C(=O)c3cccs3)c2c1 ?
Rango dissoc inh: -7.1%; miR-21 FLuc: -37.8%; Rango-impB inh: 4.5%; GLA inh pH 4.5: -10.5

Results for COc1ccc(Oc2ccc(C(F)(F)F)cc2NC(=O)c2ccc(C)cc2)cc1 ?
Rango dissoc inh: 32.3%; miR-21 FLuc: 4.4%; Rango-impB inh: -5.2%; GLA inh pH 4.5: -6.2

What do the screens show for `CCOc1ccc(CCNC(=O)Cn2nc(C)n3cccc3c2=O)cc1OCC`?
Rango dissoc inh: inconclusive; miR-21 FLuc: -6.2%; Rango-impB inh: 0.2%

How did COc1cc2c(cc1NC(=O)C(c1ccccc1)c1ccccc1)CCCC2 do in these assays?
Rango dissoc inh: -5.5%; miR-21 FLuc: -1.3%; Rango-impB inh: -0.3%; GLA inh pH 4.5: 0.8

How did COc1ccc(OC(=O)N2CCOCC2)cc1 do in these assays?
Rango dissoc inh: 15.9%; miR-21 FLuc: -18.9%; Rango-impB inh: 3.1%

Results for NC(=O)c1ccc(/C(N)=N/S(=O)(=O)c2cc(C(F)(F)F)cc(C(F)(F)F)c2)cc1 ?
Rango dissoc inh: 9.7%; miR-21 FLuc: -1.5%; Rango-impB inh: 0.1%; GLA inh pH 4.5: -7.5

What do the screens show for `CC1(C)Oc2ccc3ccc(=O)oc3c2/C(=C/NC2CCCCC2)C1=O`?
Rango dissoc inh: 2.9%; miR-21 FLuc: -6.1%; Rango-impB inh: 2.0%; GLA inh pH 4.5: -4.4

Results for COc1cc(OC)cc(C(=O)NNC(=O)CCC(=O)c2cc(C)sc2C)c1 ?
Rango dissoc inh: 2.0%; Rango-impB inh: -0.7%

Results for CC(=O)Oc1ccc(CCC(C)OC(C)=O)cc1 (stereo unspecified) ?
Rango dissoc inh: -6.7%; miR-21 FLuc: -9.9%; Rango-impB inh: -1.5%; GLA inh pH 4.5: -6.1

Results for COc1ccc(C2C(C#N)=C(N)Oc3cc(O)ccc32)cc1 (stereo unspecified) ?
Rango dissoc inh: inconclusive; Rango-impB inh: inconclusive

How did COc1cccc(CNC(=O)C2CCN(S(=O)(=O)N3CCC4(CC3)OCCO4)CC2)c1 do in these assays?
Rango dissoc inh: 16.2%; miR-21 FLuc: -2.8%; Rango-impB inh: 1.3%; GLA inh pH 4.5: -2.4

What do the screens show for `COc1ccc(CCNC(=O)C2CCCN(c3nc4ccccc4s3)C2)cc1OC` (stereo unspecified)?
Rango dissoc inh: -4.5%; miR-21 FLuc: 2.4%; Rango-impB inh: 6.8%
